# Rango-impB inh – qHTS Assay for Inhibitors of Rango (Ran-regulated importin-beta cargo) - Importin beta complex formation; Importin subunit beta-1 (Homo sapiens), Q14974; Rango CFP/YFP FRET sensor + importin beta, 45 min; Potency, µM (titrated, usually from 92.2 µM), without a hit: at the top dose inhibition of complex formation; actives 0.031% (n = 340,000); active = rising FRET ratio curve, often small or poorly fitted; inconclusive = mostly compound fluorescence or quenching in the first reads; inactive = flat curves in all reads;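 further: potency means the concentration at half of the fitted maximal effect; 0% = DMSO wells and 100% = buffer wells lacking importin beta; nearly all actives have a fitted effect of over 15% in size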
# Target sequence (Q14974 whole entry, looked up): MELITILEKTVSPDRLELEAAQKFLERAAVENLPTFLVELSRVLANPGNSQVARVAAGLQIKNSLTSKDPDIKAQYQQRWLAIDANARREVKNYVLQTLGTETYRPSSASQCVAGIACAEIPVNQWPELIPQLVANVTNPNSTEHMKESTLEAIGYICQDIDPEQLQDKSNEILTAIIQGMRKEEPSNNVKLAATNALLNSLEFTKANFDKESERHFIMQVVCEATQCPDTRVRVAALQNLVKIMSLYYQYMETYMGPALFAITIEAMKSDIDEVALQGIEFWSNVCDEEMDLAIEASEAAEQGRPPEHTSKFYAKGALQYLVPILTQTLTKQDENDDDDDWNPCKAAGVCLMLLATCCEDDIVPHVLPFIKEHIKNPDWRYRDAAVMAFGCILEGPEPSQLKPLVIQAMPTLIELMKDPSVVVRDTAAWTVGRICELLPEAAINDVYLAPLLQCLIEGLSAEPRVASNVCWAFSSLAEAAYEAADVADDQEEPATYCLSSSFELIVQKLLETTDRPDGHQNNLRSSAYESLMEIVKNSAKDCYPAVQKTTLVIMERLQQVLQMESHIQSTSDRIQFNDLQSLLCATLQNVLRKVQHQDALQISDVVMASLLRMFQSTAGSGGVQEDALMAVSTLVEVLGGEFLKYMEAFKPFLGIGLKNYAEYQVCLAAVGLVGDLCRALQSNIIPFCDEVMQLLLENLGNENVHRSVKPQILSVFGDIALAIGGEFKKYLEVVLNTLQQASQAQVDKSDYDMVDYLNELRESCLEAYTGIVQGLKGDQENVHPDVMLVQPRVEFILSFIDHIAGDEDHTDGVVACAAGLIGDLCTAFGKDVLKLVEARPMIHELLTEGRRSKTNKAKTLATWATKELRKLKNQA
#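 FRET biosensor Rango (snurportin 1 IBB between N-terminal EYFP and C-terminal Cerulean), 50 nM in PBS/1 mM DTT/0.02% Tween-20/0.1% BSA, preincubated 5 min RT with compound; 0.125 microM importin beta added, 45 min RT, CFP/YFP FRET ratio read.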
# Rango dissoc inh – qHTS Assay for Inhibitors of RanGTP induced Rango (Ran-regulated importin-beta cargo) - Importin beta complex dissociation. Snurportin-1 (Homo sapiens) + GTP-binding nuclear protein Ran (Homo sapiens) + Importin …. Biochemical FRET Rango-importin beta, RanGTP-induced dissociation. Potency, µM (titrated, usually from 46.1 µM), inactives show top-dose activity change, negative = inhibition. actives 0.071% (n = 340,000). AID 540253, 2011; active means falling FRET ratio curve, often poorly fitted, with flat reads before Ran was added; inconclusive means other falling curves, or compound fluorescence or quenching; inactive means flat or rising ratio curve;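 further: potency means the concentration at half of the fitted maximal effect; % of control where 0% means no effect; nearly all actives have a fitted effect of over 45% in size; -100% = wells without RanGTP and RCC1; the record marks most hits as doubtful in a second field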
#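 FRET read at 45 min, room temperature: inhibitors block the CFP/YFP signal rise when RanGTP (0.6 uM Ran, 2 mM GTP, 0.2 uM RCC1) frees Rango (0.1 uM) from importin beta (0.25 uM). Pre-read after 5 min compound exposure flags interference.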
# miR-21 reporter – qHTS Assay for Modulators of miRNAs and/orActivators of miR-21. Potency, µM (highest dose often 38.3 µM), for inactives: top-dose reporter change, positive = more light. HeLa miR-21 FLuc reporter, luciferase, 48 h. AID 2288, 2010. 340,000 tested, under 10 active; active = well fitted rising curve with a large enough effect; inconclusive = small, poorly fitted or top-dose-only effect; inactive = no such curve, though single readings can be large or run the other way;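 further: % of control where 0% means no effect; miR-21 action dims this reporter so a rising signal means less miR-21 action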
#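 HeLa cells stably expressing CMV-driven firefly luciferase with a downstream miR-21 binding sequence, endogenously expressing miR-21, were treated with titrations (up to about 40uM final) for 48 hours at 37 degree Celsius. Luciferase luminescence was read after lysis.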
# GLA inh pH 4.5 – qHTS Assay for Inhibitors of Human alpha-Galactosidase at pH 4.5 | purified enzyme, 4-MU-alpha-Gal fluorescence, pH 4.5 | 230,000 tested, under 10 active | activity change, negative = inhibition, % at 105 µM | Alpha-galactosidase A (Homo sapiens), P06280; inconclusive = small, poorly fitted or top-dose-only inhibition, or a rising curve; inactive = flat fitted curve, though single readings scatter; no compound was filed as active;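 further: 0% = full activity with enzyme and -100% = basal without enzyme; dose as in the result columns while the protocol names 77 µM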
# Starred values were filed as active, the others as inactive; ? = inconclusive; nt = no result given; & = joins results of further samples.
structure,GLA inh pH 4.5,Rango dissoc inh,miR-21 reporter,Rango-impB inh
Cn1c(C(=O)NCCN2CCN(Cc3ccccc3)CC2)cc2c(=O)n(C)c3ccccc3c21,7,-8%,1%,-0.5%
C#CCOCCOCCOCCNc1nc(N2CCN(C(=O)CCCCCCCCCCNC(=O)[C@H](CCCCN)n3cc(CCCC(=O)O)nn3)CC2)nc(N2CCN(C(=O)CCCCCCCCCCNC(=O)[C@H](CCCN=C(N)N)n3cc(C[C@@H](C)CC)nn3)CC2)n1,nt,0%,nt,-1.4%
CCN(Cc1nc2ccccc2c(=O)[nH]1)Cc1cc(=O)oc2cc(OC)ccc12,3,-6%,-3%,0.6%
C=CC[C@H](CC(=O)OC(C)(C)C)C(=O)OC[C@@H]1CCCN1C(=O)[C@H](CC=C)CC(=O)N[C@H](CO)Cc1ccccc1,nt,-2%,nt,-2.6%
CNC(=O)c1ccccc1NC(=O)c1ccc(C)c(S(=O)(=O)N2CCCCC2)c1,-2,-11%,-2%,-1.4%
COc1cc(N(C)C)c([N+](=O)[O-])cc1C(=O)NC(C)CNc1ccc([N+](=O)[O-])cc1Cl (configuration not stated),-1,1%,-13%,-2.5%
Cc1cccc(NC(=O)CNC(=O)c2ccc3c(c2)OCO3)n1,nt,-4%,nt,-0.2%
Cc1cccc(C)c1NC(=O)CN1CCCC1,nt,21%,nt,6.0%
COc1cc(NC(=O)CSc2nc(=O)n(CCCN3CCOCC3)c3c2CCC3)cc(OC)c1,nt,-11%,nt,0.0%
CCN(CC)c1ccc(NC(=O)Cn2nnc(-c3cccc(OC)c3OC)n2)c(C)c1,-4,18%,0%,1.6%
CC1CC(NC(=O)Cc2ccc(Br)cc2)CC(C)(C)C1 (configuration not stated),-3,6%,-5%,0.6%
CC(=O)c1c(OC(=O)c2ccccc2Br)ccc2c(C)cc(=O)oc12,19,-19%,-4%,-4.9%
O=C(COC(=O)CNC(=O)c1ccccc1)NC1CCCC1,nt,?,nt,-2.3%
COc1cccc(-c2nc(N3CCN(C)CC3)c3ccccc3n2)c1O,-2,4%,7%,1.4%
COC(=O)C1=C(N)Oc2cc(C)n(Cc3cccnc3)c(=O)c2C1c1ccccc1OC (configuration not stated),6,-1%,0%,0.1%
Cc1ccc(C2(C)NC(=O)N(CC(=O)NC(C)c3ccccc3)C2=O)cc1 (configuration not stated),nt,9%,-1%,3.0%
C[C@@H](O)Cc1cn(CC(=O)NCCCCCCCCCCC(=O)N2CCNCC2)nn1,nt,13%,nt,-1.8%
COc1ccc(NS(=O)(=O)c2cccc(C(=O)NCC(c3ccc(OC)cc3)N3CCCC3)c2)cc1 (configuration not stated),nt,-2%,nt,1.0%
O=C(c1ccccc1F)N1CCN(S(=O)(=O)c2ccc3ccccc3c2)CC1,nt,0%,0%,2.2%
CC1=NN(S(=O)(=O)c2ccc(C)cc2)C(=O)c2ccccc2O1,1,4%,1%,2.1%
Cc1ccc2c(c1)N(CCCC(=O)Nc1cccc(C(F)(F)F)c1)C(=O)CO2,nt,-7%,-4%&-6%,-0.9%
CCOc1ncccc1C(=O)OCC(=O)c1c[nH]c2ccccc12,nt,-1%,nt,-0.4%
CCOc1ccc(NC(=O)Nc2ccccc2C(N)=O)cc1,14,4%,-5%,2.5%
O=C(C1CCCCC1)N1CCC2CC1c1cc(Cl)ccc12 (configuration not stated),nt,-2%,nt,0.5%
O=C(COc1ccccc1F)Nc1nnc(-c2ccncc2)s1,8,-11%,-4%,0.7%
CCOC(=O)N1CCc2c(sc(NC(=O)C3=COCCO3)c2C(N)=O)C1,nt,16%,-2%,0.6%
COc1ccc(C(=O)OCC(=O)NC(C)CCc2ccccc2)cc1OC (configuration not stated),nt,-8%,1%,-2.1%
Cc1ccc(N2C(=O)CC(Sc3nccc(C)n3)C2=O)cc1 (configuration not stated),nt,-6%,-1%,3.5%
Cc1c(NC(=O)Cn2ccc([N+](=O)[O-])n2)c(=O)n(-c2ccccc2)n1C,-3,0%,0%,-3.0%
Cc1ccc(CC2SC(=Nc3ccccc3)N(c3ccccc3)C2=O)cc1 (configuration not stated),-1,-5%,-1%,-3.0%
CC(C)(C)C(=O)N1CCN(c2nc3ccc(Br)cc3s2)CC1,nt,24%,-18%,-0.5%
CC(/C=N/n1c(-c2ccc(C)cc2)n[nH]c1=S)=C\c1ccco1,-12,-2%,-4%,1.2%
CC(CN1CCCCC1)OC(=O)c1cccc(F)c1 (configuration not stated),nt,-19%,-14%,0.8%
O=C1CC(N(Cc2ccco2)C(=O)Nc2ccc(F)cc2)C(=O)N1c1ccc(F)cc1 (configuration not stated),1,-5%,-1%,-2.3%
COc1ccc(C(CNC(=O)Cc2ccc(-c3ccccc3)cc2)N(C)C)cc1 (configuration not stated),nt,-14%,-1%,-1.8%
COc1ccc(Cl)cc1NC(=O)c1nnn(CC(=O)Nc2ccc(OC)c(OC)c2)c1N,nt,-5%,-1%,1.4%
COc1ccc(CC(=O)Nc2cccc(-c3nnc(-c4ccccc4)o3)c2)cc1OC,-18,-18%,?,2.6%
CCOc1cc2c(cc1OC)C(NC(=O)c1ccco1)CC2=O (configuration not stated),nt,0%,1%,-7.8%
COCc1cccc(N2C(=O)CC(C3C=C(C)C4C(=O)N(c5cccc(COC)c5)C(=O)C4C3)C2=O)c1 (configuration not stated),-1,-12%,3%,-1.2%
Cc1ccc(S(=O)(=O)NC(N)=NCCc2ccccc2)cc1C,2,0%,-9%,0.3%
CCN(CC(=O)Nc1ccccc1C(F)(F)F)C(=O)CSCc1ccc(C)cc1,nt,-4%,nt,1.2%
CCn1cc(C(=O)N2CCN(c3ccc(OC)cc3)CC2)c2cc(OC)c(OC)cc2c1=O,-2,19%,-23%&-14%,2.7%
Cc1ccc(C)c(NC(=O)CN2C(=O)COc3ccc(S(=O)(=O)N4CCCC4)cc32)c1,nt,18%,-5%,?
CCOC(=O)c1sc(NC(=O)COC(=O)CNC(=O)C2CCCCC2)c(C(=O)OCC)c1C,-1,-2%,-12%,-2.9%
OC(COCc1ccccc1)CN1CCCCC1 (configuration not stated),nt,-14%,0%,2.9%

# 2 entries from above, with values under each structure.
# Value order – GLA inh pH 4.5, Rango dissoc inh, miR-21 reporter, Rango-impB inh
CC(CN1CCCCC1)OC(=O)c1cccc(F)c1 (configuration not stated)
  nt, -19%, -14%, 0.8%
O=C1CC(N(Cc2ccco2)C(=O)Nc2ccc(F)cc2)C(=O)N1c1ccc(F)cc1 (configuration not stated)
  1, -5%, -1%, -2.3%

# Returning to the listing, repeating the six entries before the break.
structure,GLA inh pH 4.5,Rango dissoc inh,miR-21 reporter,Rango-impB inh
Cc1ccc(S(=O)(=O)NC(N)=NCCc2ccccc2)cc1C,2,0%,-9%,0.3%
CCN(CC(=O)Nc1ccccc1C(F)(F)F)C(=O)CSCc1ccc(C)cc1,nt,-4%,nt,1.2%
CCn1cc(C(=O)N2CCN(c3ccc(OC)cc3)CC2)c2cc(OC)c(OC)cc2c1=O,-2,19%,-23%&-14%,2.7%
Cc1ccc(C)c(NC(=O)CN2C(=O)COc3ccc(S(=O)(=O)N4CCCC4)cc32)c1,nt,18%,-5%,?
CCOC(=O)c1sc(NC(=O)COC(=O)CNC(=O)C2CCCCC2)c(C(=O)OCC)c1C,-1,-2%,-12%,-2.9%
OC(COCc1ccccc1)CN1CCCCC1 (configuration not stated),nt,-14%,0%,2.9%
Cc1cc([N+](=O)[O-])nn1CC(=O)N1CCN(Cc2ccccc2)CC1,-5,-16%,3%,4.6%
OCCN(Cc1ccccc1)Cc1ccc(Cl)cc1,-18,6%,-9%,-4.3%
O=C(NCC1CCCO1)C1c2ccccc2C(=O)N1Cc1ccc2c(c1)OCO2 (configuration not stated),-25,-14%,-4%,-1.2%
O=C(O)CNC(=S)N(Cc1ccco1)Cc1ccccc1Cl,2,6%,-5%,-2.8%
c1ccc(CCNC2=NCCS2)cc1,nt,26%,5%,0.6%
Cn1c(C(=O)NC2CCCC2)cc2c(=O)n(C)c3ccccc3c21,-13,76%,5%,1.3%
COc1ccc(NC(=O)C(=O)NCCN2CCN(C(=O)c3cccc(Br)c3)CC2)cc1,nt,-8%,0%,1.9%
O=C(COC(=O)c1cc2ccccc2oc1=O)Nc1cccc(S(=O)(=O)N2CCCCCC2)c1,-2,23%,-36%,5.4%
O=C(NNC(=O)C1CCCCC1)c1ccco1,-5,-12%,6%,-0.1%
Cc1nc2nc(SCC(=O)N3CCOCC3)nn2c(C)c1Cc1ccccc1,2,-3%,-17%,-2.4%
CC(C)Cn1c(N)c(C(=O)COC(=O)CCc2nc3ccccc3c(=O)[nH]2)c(=O)n(C)c1=O,nt,4%,nt,0.3%
CCCN1CCN(C(=O)c2cc(COc3ccc4ncccc4c3)on2)CC1,4,8%,12%,?
COc1ccc(-n2c(=S)[nH]c3cc(C(=O)Nc4ccc(F)cc4)ccc3c2=O)c(OC)c1,nt,-6%,23%,0.3%
COC(=O)Cc1cnc(NC(=O)CSc2nc(C(C)C)cc(=O)[nH]2)s1,nt,-13%,0%,3.9%
NNC(=O)COc1ccccc1[N+](=O)[O-],4,-1%,-29%,-1.2%
O=C(CSc1nc2ccccc2c(=O)n1CC1CCCO1)N1CCN(c2ccccc2)CC1 (configuration not stated),nt,12%,nt,-2.0%
Cc1nc2cc(C(=O)O)ccc2n1-c1ccccc1,-1,3%,-5%,4.4%
O=S(=O)(CCc1ccccc1)CS(=O)(=O)CCc1ccccc1,nt,10%,nt,-0.9%
Cc1cc(NC(=O)c2ccc(S(=O)(=O)N(C)C)cc2)no1,-20,0%,-7%,-2.0%
CCCC1(CCC)NC(=O)N(CC(=O)Nc2ccc(Cl)c(S(=O)(=O)N3CCOCC3)c2)C1=O,nt,-12%,nt,2.2%
CCc1c(C)nc(SCC(N)=O)c(C#N)c1C,7,-9%,-10%,0.2%
CCN1C(=NCc2ccc(OC)cc2)N[C@@H](c2ccccc2)C(C(=O)OC)=C1C,nt,-5%,2%&0%,2.7%
CC(OC(=O)c1cccc(S(=O)(=O)Nc2ccccc2F)c1)C(=O)NCc1ccc2c(c1)OCO2 (configuration not stated),-1,-12%,1%,1.5%
O=C1CCC(O)CCN1CCSc1ccccc1 (configuration not stated),nt,28%,-37%,-1.5%
CCCCN1CC(=O)N2[C@H](c3ccc(OC)cc3)[C@@H]3C(=O)N(CC)C(=O)[C@@H]3[C@]2(Cc2ccccc2)C1=O,nt,-9%,2%,2.2%
Cc1[nH]c2ccccc2c1CCCO,4,?,4%,?
CC1CCCN(CCC(=O)Nc2ccccc2)C1 (configuration not stated),-3,0%,-2%,-0.4%
CO/N=C/CC(=O)c1ccc(-c2ccccc2)cc1,-3,14%,-26%,6.5%
CS(=O)(=O)N(CC(=O)Nc1ccc(S(=O)(=O)N2CCCC2)cc1)c1ccccc1F,1,-2%,4%,1.3%
O=C(CSc1nnc2ccccn12)c1ccc(OC(F)F)cc1OC(F)F,3,-2%,-15%,-2.1%
COc1cc2c(cc1OC)C(c1ccco1)CC(=O)N2 (configuration not stated),7,16%,-9%,4.8%
CCOc1ccc2cc(C3CC(c4ccco4)=NN3S(C)(=O)=O)c(Cl)nc2c1 (configuration not stated),-8,-25%,-6%,2.6%
CCc1c(C)sc(NC(=S)N2CC(C)OC(C)C2)c1C(=O)OC (configuration not stated),5,0%,-2%,-4.4%

# A portion of the library. The share of hits here may be higher or lower than overall.
